HIV TAR-Tat: HIV-1 TAR-Tat binding disruption; HIV-1 TAR RNA, Tat peptide displacement FRET; stronger effect = higher value; z-score (concentration not given with the values); 0.6% of 100,000 active; AID 1259389;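 note: score is relative to mean and SD of negative controls; some compounds called inactive have numbers as strong as hits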
CDC25B CDK2 inh: human CDC25B-CDK2/CyclinA binding inhibition; 0.72% of 94,000 active; P30305+P24941; HTRF CDC25B-CDK2/CyclinA binding, anti-His/anti-Flag; stronger effect = higher value; z-score (concentration not given with the values); AID 1259370;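 note: score is relative to mean and SD of negative controls; strong numbers were not always called active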
* hit, by the source's call; / = not tested or not shown.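 Rule for the calls: active = z-score from 3 up in half or more of its runs; inactive = the rest.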

SMILES	HIV TAR-Tat	CDC25B CDK2 inh
O=C(Cn1ccc2cc(S(=O)(=O)N3CCCCC3)ccc21)NCCC1=CCCCC1	0.17	/
CSc1nc(C)nc(N/C=C(\C#N)S(C)(=O)=O)n1	/	-2
CC(=O)Oc1cccc(/C=C2N=C(/C=C/c3ccccc3)OC/2=O)c1	/	-0.86
CCCN(CCC)C(=O)c1c2c(nc3ccccc13)C(=O)N(C1CCCCC1)C2	1.5	/
CCn1c(SCC(=O)N2CCCC2)nc2c(c1=O)SCC2	3.9	-1.7
Cc1ccnc(N2C(=O)c3ccccc3C2Nc2ccccc2F)c1 (centres undefined)	0.19	-2.6
Clc1ccccc1-c1csc(NCC2CCCO2)n1 (centres undefined)	/	-2.1
Cc1noc(/C=C/c2cccs2)c1S(=O)(=O)N1CCC(C(=O)N2CCCC2)CC1	1.3	/
c1csc(-c2nnc(N3CCCCCC3)c3ccccc23)c1	/	-0.02
CSc1nnc2c(n1)OC(c1ccco1)N(C(C)=O)c1ccccc1-2 (centres undefined)	0.13	0.68
Cc1ccc(Nc2nc(=O)c3cccnc3s2)c(Br)c1	2.3	0.4
CC1C(c2ccccc2)OCCN1C(=O)CCC(=O)N1CCOC(c2ccccc2)C1C (centres undefined)	/	-0.96
CCCCN(CCCC)CCn1cnc2c([nH]c3ccc(Cl)cc32)c1=O	0.38	-1.7
Cc1ccc2c(C)nc(Nc3ncc4c(n3)CC(c3ccco3)CC4=O)nc2c1 (centres undefined)	-0.52	0.38
CCOC(=O)c1cc(-c2ccc(S(=O)(=O)Nc3ccc4c(c3)OCO4)s2)on1	-2.1	/
Cc1cccc(-n2nnc(-c3nc(-c4ccc(Cl)cc4)no3)c2N)c1	0.83	/
CCOc1ccc(N2C(=O)c3cccnc3C2Nc2ccc(F)cc2)cc1 (centres undefined)	2.4	-1.4
COc1ccc(-n2ncc3c(NC(C)(C)CO)ncnc32)cc1	-0.46	/
CC(=O)c1cc([N+](=O)[O-])ccc1Sc1ccc(Cl)cc1	/	1.4
CC1CCCCC1NC(=O)C1c2cccn2CC(=O)N1C1CC1 (centres undefined)	0.34	-0.47
COc1ccc(Cl)cc1NCc1nnc2n1CCCCC2	0.88	/
Cc1ccc2oc(SCC(=O)Nc3c(F)cccc3F)nc2n1	1.6	/
COc1ccc(OCCN[C@H]2CS(=O)(=O)C[C@@H]2S(=O)(=O)c2ccc(C)cc2)cc1	1.4	0.97
CN(c1ccc(Br)cc1)S(=O)(=O)c1ccc2c(c1)NC(=O)CO2	-0.17	/
CCCS(=O)(=O)N1CCCc2ccc(NS(=O)(=O)c3ccccc3F)cc21	-0.44	/
CCOc1ccc(CCn2c(C)c(C)c3c2ncn2nc(-c4ccncc4)nc32)cc1OCC	-1.5	-0.74
Fc1ccc(-c2nnc3sc(-c4cc5ccccc5o4)nn23)cc1	0.91	-1.9
Cc1ccc(CNC(=O)c2ccc(N3CCSc4ncccc43)s2)o1	-0.95	/
c1ccc(-c2cc(Nc3ccc(N4CCCC4)cc3)ncn2)cc1	1.9	-1.3
CSc1cc(=O)c2ccccc2s1	/	-1.5
Cc1cc(SCC(=O)c2ccc(Cl)cc2)ncn1	0.55	-8.2
O=C(NCc1cccs1)Nc1csc2ccccc12	/	-4
O=C1CCCN2N=C(SCC(=O)Nc3ccc(F)cc3F)SC2=N1	/	-0.9
Cc1nc(Cl)c2c(C)c(C)n(-c3ccccc3)c2n1	1.3	-1.5
c1ccc(OCc2nn3c(Cn4cnc5ccccc54)nnc3s2)cc1	2.6	-0.29
Cc1cc(NC(=O)c2cc(C)oc2C)on1	/	-0.65
Cc1csc(NC(=O)c2cc3c(=O)n(C)c(=O)n(C)c3s2)n1	1.7	/
Cc1nn(CC(=O)N2CCCC2)c(C)c1S(=O)(=O)N1CCC(C(=O)NC2CCCC2)CC1	2.4	/
O=c1cc(CSc2nnnn2-c2ccccc2)[nH]c2nc3ccccc3n12	1.2	-2.4
Cc1cccc2c(N)c3c(nc12)N(C)CC3	/	-1.8
CCc1c(C)nc(N2CCN(Cc3ccc4c(c3)OCO4)CC2)[nH]c1=O	-1.3	-2.5
CN1C(=O)c2cc(C(=O)NCCCN3CCCCC3)nn2CC1(C)C(=O)NC1CCCC1 (centres undefined)	1.5	/
O=C(Nc1ccc(Cl)cc1)C1CCN(c2ccc(-c3cccs3)nn2)CC1	-0.15	/
Cc1nc(SC(C)C(=O)OCC(C)C)cc(-c2ccccc2)n1 (centres undefined)	0.08	-0.63
O=c1c2nccnc2nc(SCc2ccccc2Cl)n1Cc1ccccc1	1.2	-1.3
O=c1[nH]c2ccc(S(=O)(=O)NCCc3ccc(F)cc3)cc2[nH]1	0.11	2.5
Cc1noc(C)c1S(=O)(=O)N1CCN(c2c(C)n(C)c(=O)n(C)c2=O)CC1	0.54	/
O=C(O)c1cc(-c2ccc(Cl)cc2)nc2n[nH]c(-c3ccc(F)cc3)c12	2.1	/
COCCNc1nc2c(S(=O)(=O)c3ccc(C)cc3)nnn2c2ccsc12	-0.28	/
Cc1cc(C)c(NC(=O)c2cn3c4c(ccc(Cl)c4c2=O)OC(C)C3)c(C)c1 (centres undefined)	0.51	/
Cc1nc(N2CCOCC2)cc(N2CCN(C(=O)c3ccc(C(C)(C)C)cc3)CC2)n1	-0.17	-1
NS(=O)(=O)c1cccc2cc(C(=O)O)c(O)cc12	0.91	-1.5
Cc1ccc(-c2nc3nc(C)cc(=O)n3[nH]2)cc1	1.4	0.83
CCc1ccc(CN(C(=O)c2cc(=O)c3ccccc3o2)C2CCS(=O)(=O)C2)cc1 (centres undefined)	0.16	-0.55
O=C(CSc1nc2ncccc2[nH]1)N1CCNC1=O	0.17	0.38
CCC(C(=O)NCCCN1CCc2ccccc2C1)n1nc(C)c2sc3ccccc3c2c1=O (centres undefined)	1	-0.81
Cc1cc(C)c(C#N)c(SCC(=O)Nc2ccc(Br)cc2)n1	/	-0.09
CC(=O)Oc1cccc(-c2nc3ccc(OC(C)=O)cc3c(=O)o2)c1	1.7	0.12
CCn1c(COc2ccc(C(C)C)cc2)nnc1SCc1cc(=O)c2cc(OC)ccc2[nH]1	0.13	/
O=C(c1cc2c(s1)-c1ccccc1S(=O)(=O)C2)N1CCCCC1	1.4	-2.4

Structures shown so far containing an aryl methoxy group, in the order listed:
SMILES	HIV TAR-Tat	CDC25B CDK2 inh
COc1ccc(-n2ncc3c(NC(C)(C)CO)ncnc32)cc1	-0.46	/
COc1ccc(Cl)cc1NCc1nnc2n1CCCCC2	0.88	/
COc1ccc(OCCN[C@H]2CS(=O)(=O)C[C@@H]2S(=O)(=O)c2ccc(C)cc2)cc1	1.4	0.97
CCn1c(COc2ccc(C(C)C)cc2)nnc1SCc1cc(=O)c2cc(OC)ccc2[nH]1	0.13	/

Some of the entries so far, as labelled records:
CSc1cc(=O)c2ccccc2s1
  HIV TAR-Tat = /
  CDC25B CDK2 inh = -1.5
Cc1cc(SCC(=O)c2ccc(Cl)cc2)ncn1
  HIV TAR-Tat = 0.55
  CDC25B CDK2 inh = -8.2
O=C(NCc1cccs1)Nc1csc2ccccc12
  HIV TAR-Tat = /
  CDC25B CDK2 inh = -4

(cont.)
SMILES	HIV TAR-Tat	CDC25B CDK2 inh
CCN1CCN(c2nnc(-n3cccc3CNc3ccc4c(c3)OCO4)s2)CC1	0.38	/
c1ccc(N2CCN(c3ncc4c(n3)CCNC4)CC2)nc1	3.7	0.3
CCOCCOC(=O)C1=C(C)NC2=C(C(=O)CC(C)(C)C2)C1c1ccc(O)c(OCC)c1 (centres undefined)	1.3	-0.59
COc1ccc(-c2nc3c(c(=O)[nH]2)Cc2cc(Cl)ccc2O3)c(OC)c1	2.2	-1.1
O=S(=O)(NCC(c1cccnc1)N1CCc2ccccc2C1)c1ccccc1 (centres undefined)	1.6	-1.3
Cn1nnnc1SCCCNCc1ccc(F)cc1	-1.3	-1.6
Cc1ccc2cc(-c3noc(CC(C)C)n3)c(=O)[nH]c2c1	-1.6	-0.89
O=C(NCC(c1ccco1)S(=O)(=O)c1ccc(Cl)cc1)C1CCCCC1 (centres undefined)	1.2	/
O=C1CCc2ccc(OCCCCN3CCN(c4cccc(Cl)c4Cl)CC3)cc2N1	-0.85	/
CCOC(=O)c1[nH]c(C)c(CN(Cc2ccco2)C(=O)c2ccco2)c1C	0.06	/
CCOc1ccc2nc(N(CCN(C)C)C(=O)c3cccs3)sc2c1	0.29	/
O=S(=O)(NCC(c1ccccc1)N1CCNCC1)c1ccccc1 (centres undefined)	-0.68	-2.5
O=S(=O)(NCCc1ccc(Cl)cc1)c1cccc2cccnc12	/	-1.5
O=C(NC1CCCC1)C1CCN(c2ccccc2)C1=O (centres undefined)	-0.47	/
CC(c1cc2ccccc2s1)N(O)C(N)=O (centres undefined)	0.16	/

Among those listed so far, 9 contain fluorine.
SMILES	HIV TAR-Tat	CDC25B CDK2 inh
Cc1ccnc(N2C(=O)c3ccccc3C2Nc2ccccc2F)c1 (centres undefined)	0.19	-2.6
CCOc1ccc(N2C(=O)c3cccnc3C2Nc2ccc(F)cc2)cc1 (centres undefined)	2.4	-1.4
Cc1ccc2oc(SCC(=O)Nc3c(F)cccc3F)nc2n1	1.6	/
CCCS(=O)(=O)N1CCCc2ccc(NS(=O)(=O)c3ccccc3F)cc21	-0.44	/
Fc1ccc(-c2nnc3sc(-c4cc5ccccc5o4)nn23)cc1	0.91	-1.9
O=C1CCCN2N=C(SCC(=O)Nc3ccc(F)cc3F)SC2=N1	/	-0.9
O=c1[nH]c2ccc(S(=O)(=O)NCCc3ccc(F)cc3)cc2[nH]1	0.11	2.5
O=C(O)c1cc(-c2ccc(Cl)cc2)nc2n[nH]c(-c3ccc(F)cc3)c12	2.1	/
Cn1nnnc1SCCCNCc1ccc(F)cc1	-1.3	-1.6

Carrying on:
SMILES	HIV TAR-Tat	CDC25B CDK2 inh
Cc1cccc(-c2nc(SCc3cc(=O)c4cc(C)cc(C)c4[nH]3)n[nH]2)c1	-0.05	/
Cc1cc(C)nc(NCc2ccc(Cl)cc2)n1	0.89	-1.5
O=C(O)CCS(=O)(=O)CCC(=O)O	0.4	-0.1
O=c1cc(-c2ccccc2)oc2cc(O)c(O)cc12	29*	/
Cc1cccc(Nc2nc(NCc3ccco3)nc(N3CCOCC3)n2)c1	/	-0.73
O=C(NCCN1CCCC1)C1CCN(c2nc3ccccc3n3cccc23)CC1	-4.7	/
O=C(O)Cn1c(SCC(=O)c2ccc(Br)cc2)nc2ccsc2c1=O	1	/
COc1cccc2oc(-c3ccccc3)c(Br)c12	1.3	-1.4
Cc1nc2c3ccccc3n(CC(=O)c3ccc(Br)cc3)c(=O)n2n1	/	-2.9
CCOC(=O)c1sc2ncnc(OC)c2c1C	0.12	-0.84
CC(Oc1ccccc1)c1nc(-c2ccncc2)no1 (centres undefined)	1.2	-1.6
O=C(CSc1nc(-c2cccs2)nc2cc(=O)[nH]n12)Nc1ccccc1F	1.4	/
Nc1ccccc1NC(=O)c1ccc(CNc2nccc(-c3cccnc3)n2)cc1	0.68	/
C/C=C/COC(=O)c1[nH]c2c(c1C)C(=O)CC(c1cccs1)C2 (centres undefined)	-0.89	-0.83
CCCC12CN3CC(C)(CN(C1)C3c1ccc(C)cc1)C2=O (centres undefined)	/	1.3
COc1ccc(CNc2nc3cc(OC)c(OC)cc3c3nc(-c4ccccc4)nn23)cc1	-0.4	-1.1
COc1ccc(S(=O)(=O)NCc2cn3ccccc3n2)cc1OC	/	-0.42
O=S(=O)(c1ccc(Br)cc1)N1CCN(Cc2ccc(F)cc2)CC1	/	-0.38
O=C(CSc1nc2ccncc2[nH]1)Nc1ccc(F)c(Cl)c1	-0.09	-0.73
O=C(CSc1nnc(-c2ccc(F)cc2)o1)NC1CCCCC1	-0.91	-0.38
Cc1ccc(C2c3c(n[nH]c3C)C(=O)N2c2ccc(Br)cc2)cc1 (centres undefined)	-0.86	/
Cc1ccc(Cn2cc(CO)c3ccccc32)cc1	-0.21	-7.7
CNc1ccccc1C(=O)NC(C)(C)C	/	-0.83
CC(ONC(=O)c1cc(C(F)(F)F)cc(C(F)(F)F)c1)C(=O)Nc1ccc(Cl)cc1 (centres undefined)	/	-0.97
Cc1nn(C(C)C(=O)N2CCN(c3ccccc3F)CC2)c(=O)c2c1sc1ccccc12 (centres undefined)	1.8	-0.51
COc1ccc2c(c1)CC(NC(=O)NCc1ccc3c(c1)OCO3)CO2 (centres undefined)	2.9	/
CCOC(=O)c1sc2ccccc2c1S(=O)(=O)Nc1cc(Cl)c(OC)cc1OC	2	/
Nc1ncnc2c1ncn2[C@@H]1O[C@H](CO)[C@H](O)C1O (some centres undefined)	/	-0.16
O=C(O)c1ccc(CSc2nnc(COc3ccccc3)o2)cc1	-1.3	-1.9
c1ccc(-n2ncc3c(NCc4cccnc4)ncnc32)cc1	/	-0.66
COc1ccc(-c2nn3c(-c4ccccc4)nnc3s2)cc1	0.72	-0.9
CC1CCCCN1S(=O)(=O)c1ccc(NC(=O)c2nn(-c3ccc(Cl)cc3)ccc2=O)cc1 (centres undefined)	0.4	0.02
CC1Cc2cc(S(=O)(=O)NCc3cccs3)ccc2N1C(=O)C1CC1 (centres undefined)	-0.27	/
CCc1ccc2[nH]cc(S(=O)(=O)c3ccc(C)c(C)c3)c(=O)c2c1	0.71	-0.15
CC(=O)C1C(c2ccc(F)cc2)C2C(C)=NN=C2CC1(C)O (centres undefined)	/	-1.6
COc1ccc(C2SCCN2S(=O)(=O)c2ccc(-c3ccccc3)cc2)cc1 (centres undefined)	1.3	-2.9
Cc1ccc2c(c1)N(S(=O)(=O)c1ccc3c(c1)NC(=O)CCS3)CCO2	-0.23	/
CCC(C)(C(=O)NC1CCCCC1)N(C)C(=O)Cc1cccs1 (centres undefined)	/	-0.1
CCc1nnc(SCC(=O)Nc2cc(OC)cc(OC)c2)c2cc3oc(C)cc3n12	4.7	/
COc1ccc2c(c1OC)C(=O)O[C@H]2[C@H]1c2c(cc3c(c2OC)OCO3)CCN1C	3.6	/
CC(C)(C)C(=O)Nc1nnc(SCc2nc3ccccc3[nH]c2=O)s1	-2.9	/
CC(C)(C)OC(=O)NC1CCN(C(=O)CSCC(=O)O)CC1	/	-2.4
NC(N)=N/N=C1\CCc2ccccc21	/	-1.6

Screening results: PubChem BioAssay, Center for Chemical Genomics, University of Michigan
